eIF4H inh: human eIF4H binding inhibitors, primary screen, translation initiation inhibitor project, biochemical, uHTS, fluorescence polarization | inhibition, % at 35 µM | Eukaryotic translation initiation factor 4H (Homo sapiens), Q15056 | 290,000 tested, 0.94% active | eIF4H fluorescence polarization binding assay;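 active = 50% or more with normal probe brightness, or confirmed in later tests; about a fifth of its hits are not listed in these tables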;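 also: calls also rest on retests at 20 µM and on dose response follow-up; 0% = protein and probe with vehicle and 100% = probe without protein; strong numbers were not always called active; many hits fall short of the cut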
MT1-MMP act inh: blockers of MT1-MMP proenzyme processing, primary screen, HT1080 RFP-PRO-GFP cells, GFP/RFP fluorescence; Matrix metalloproteinase-14 (Homo sapiens), P50281; GFP/RFP ratio fluorescence, overnight; percent of plate control window, DMSO zero; GFP/RFP ratio change, % at 20 µM; 360,000 tested, 0.061% active;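 active = GFP/RFP ratio change of at least 30% with cell ATP level not reduced by more than half and red fluorescence within 50% of control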; also: strong numbers were not always called active
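system = RFP-PRO-GFP reporter HT1080 cells | dosing = 20 µM single dose, 1% DMSO | timing = overnight cell settling, then overnight compound exposure, 37 °C, 5% CO2 | read-out basis = GFP/RFP fluorescence ratio | controls = DMSO and RFP-L50D-GFP cell wells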
PABP polyA inh: PABP poly(A) RNA binding inhibitors, primary screen, biochemical, fluorescence polarization, uHTS. Polyadenylate-binding protein 1 (Homo sapiens), P11940. inhibition, % at 35 µM. 290,000 tested, 1% active. AID 2014, 2009;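 active = 50% or more with normal probe brightness, or confirmed in later tests; about a fifth of its hits are not listed in these tables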;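 also: calls also rest on retests at 20 µM and on dose response follow-up; controls were probe without protein and protein plus probe with vehicle; some compounds called inactive have numbers as strong as hits; many hits fall short of the cut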
Target sequence (P11940 whole entry, looked up): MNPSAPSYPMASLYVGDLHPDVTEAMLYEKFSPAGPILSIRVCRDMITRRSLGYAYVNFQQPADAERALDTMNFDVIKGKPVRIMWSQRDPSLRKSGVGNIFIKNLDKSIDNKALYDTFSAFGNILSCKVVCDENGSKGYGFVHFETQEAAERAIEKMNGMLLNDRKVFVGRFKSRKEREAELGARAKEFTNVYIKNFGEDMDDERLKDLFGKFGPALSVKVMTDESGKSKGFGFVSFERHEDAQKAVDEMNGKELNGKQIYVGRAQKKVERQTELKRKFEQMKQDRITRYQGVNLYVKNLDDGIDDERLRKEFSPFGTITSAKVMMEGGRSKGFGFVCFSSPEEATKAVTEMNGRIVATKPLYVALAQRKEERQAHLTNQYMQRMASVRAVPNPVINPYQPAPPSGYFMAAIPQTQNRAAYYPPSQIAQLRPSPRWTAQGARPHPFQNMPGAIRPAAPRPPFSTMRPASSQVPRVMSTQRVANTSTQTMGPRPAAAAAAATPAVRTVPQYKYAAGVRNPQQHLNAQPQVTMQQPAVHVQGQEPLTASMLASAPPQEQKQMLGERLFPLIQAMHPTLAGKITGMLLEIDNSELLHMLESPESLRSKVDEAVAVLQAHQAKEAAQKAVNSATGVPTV
Rce1 inhib: yeast Rce1p protease inhibitors, primary screen, biochemical, fluorescence, cell-free homogeneous; CAAX prenyl protease 2 (Saccharomyces cerevisiae (strain ATCC 204508 / S288c)), Q03530; yeast membranes, quenched prenylated peptide cleavage fluorescence; calls only; 290,000 tested, 0.27% active; AID 2563, 2010;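 active = fall in fluorescence gain of 50% or more versus controls, with final raw signal at or below 3038400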;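 also: plate controls were neutral control wells for no effect and wells lacking membranes for full effect; tested at 10 µM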
Target sequence (Q03530 whole entry, looked up): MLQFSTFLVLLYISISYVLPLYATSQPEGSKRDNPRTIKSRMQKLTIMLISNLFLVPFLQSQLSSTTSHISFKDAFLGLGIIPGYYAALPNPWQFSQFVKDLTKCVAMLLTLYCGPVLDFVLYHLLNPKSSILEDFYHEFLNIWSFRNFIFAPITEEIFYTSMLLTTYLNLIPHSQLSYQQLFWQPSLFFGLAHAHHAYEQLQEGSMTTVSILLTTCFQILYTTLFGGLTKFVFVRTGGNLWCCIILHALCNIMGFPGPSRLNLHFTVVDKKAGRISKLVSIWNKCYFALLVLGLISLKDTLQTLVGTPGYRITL
CSC inhib: cancer stem cell viability inhibitors, primary screen, luminescence; cancer stem cell-like cells viability; inhibition, % at 7.5 µM; 300,000 tested, 1.1% active; AID 2717, 2010;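 active = mean at 75% or more and at least half the replicates too; tested in HMLE shEcad cells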;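 also: 0% = median of negative and 100% = median of positive control wells; the first replicate is given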
Env fusion inh: inhibitors of HIV-1 Env-driven cell-cell fusion, primary screen, HeLa-JRFL effector, CEM21 target cells, luciferase; AID 651610, 2012; inhibition, % at 12.3 µM; 360,000 tested, 1.1% active;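 active = mean replicate inhibition score of at least 50 and every replicate individually at or above 50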;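 also: 0% = plate neutral controls and 100% = maraviroc near 300 nM; one replicate is shown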
UUG fidelity: modulators of yeast start codon fidelity, primary screen, whole organism, S. cerevisiae, single point, plate reader; S. cerevisiae UUG-firefly luciferase reporter, luminescence/redox ratio; activity score, % at 18.7 µM; 350,000 tested, 0.13% active;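 active = replicate mean at a twofold rise or more, about +100% in these data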;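 also: firefly luciferase made from a UUG start codon reports start codon fidelity; reporter light over untreated wells divided by growth signal over untreated wells; some hits fall short of that in this replicate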
eIF4H inh retest: also measured in eIF4H inh; calls as there; inhibition, %; compound at 20 µM; confirmation average;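 mean of two retest wells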
PABP polyA inh retest: further read-out of PABP polyA inh, marked with its call; inhibition, %; compound at 20 µM; confirmation repeats;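 mean of two retest wells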
MT1-MMP act inh RFP: second read-out of MT1-MMP act inh, no call of its own (marks repeat the call); RFP signal change, %; measured here: RFP expression control read;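 0 = vehicle wells; hits needed this value within 50% of zero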
Numbers without * were called inactive; i = inactive; · = no result given. Outcome played no part in choosing rows. About 3% of those tested had a hit in this group.

The opening two entries (preview)
SMILES	eIF4H inh	MT1-MMP act inh	MT1-MMP act inh RFP	PABP polyA inh	Rce1 inhib	CSC inhib	Env fusion inh	UUG fidelity	others
COCCn1c(C)nnc1SCC(=O)Nc1ccccc1[N+](=O)[O-]	0	2	6	2	i	-3	-6	·
Cn1nccc1C(=O)Nc1ccc2c(c1)OCO2	-1	0	4	-2	i	6	-53	-23

The whole of this part, from the first entry:
SMILES	eIF4H inh	MT1-MMP act inh	MT1-MMP act inh RFP	PABP polyA inh	Rce1 inhib	CSC inhib	Env fusion inh	UUG fidelity	others
COCCn1c(C)nnc1SCC(=O)Nc1ccccc1[N+](=O)[O-]	0	2	6	2	i	-3	-6	·
Cn1nccc1C(=O)Nc1ccc2c(c1)OCO2	-1	0	4	-2	i	6	-53	-23
Cc1ccc(NC(=O)CN(C)C(=O)CSc2nnnn2C)cc1	-4	-1	2	1	i	-18	-1	·
CC(C)(C)[C@@H]1C=C(C(N)=O)O[C@H](OCCCCO)C1	·	1	2	·	i	-3	3	-14
O=C(CSc1nnc(SCc2ccccc2)s1)N/N=C/C=C\c1ccco1	97	-3	8	2	i	5	7	·	eIF4H inh retest=16;PABP polyA inh retest=49
CCOC(=O)C(C)n1cnc2sc(C)c(C)c2c1=O (centres undefined)	1	3	-1	-3	i	-8	·	-21
COc1cccc(C(=O)NNC2=C(C(=O)C(F)(F)F)CCC2)c1	10	6	4	-3	i	24	-6	-11
CC(C)c1nc2sc3c(c2c(=O)o1)CCCC3	-3	2	4	12	i	1	·	-18
CCOC(=O)C(NC(C)=O)(Nc1ccc(S(=O)(=O)Nc2ncccn2)cc1)C(F)(F)F (centres undefined)	-4	-1	3	-13	i	-13	4	·
O=C(c1ccc([N+](=O)[O-])o1)N1CCc2ccccc2C1	3	4	-5	-5	i	-17	-202	·
COc1ccc(NC(=O)C2Cc3c(-c4ccc5c(c4)OCO5)ccnc3O2)cc1OC (centres undefined)	·	6	-27	·	·	·	18	-9
O=C(CCS(=O)(=O)c1ccc(Cl)cc1)N1CCN(c2ccc(F)cc2)CC1	·	9	-4	·	·	-7	·	-4
O=C(NNC(=O)C1CC=CCC1C(=O)O)c1cccs1 (centres undefined)	8	1	4	11	i	-9	-7	·
CC(=O)N1CCN(C23CC4CC(CC(C4)C2)C3)CC1	1	1	5	2	i	1	-2	-11
N/C(Cc1ccc([N+](=O)[O-])cc1)=N\OC(=O)c1cccc(Br)c1	-9	3	0	6	i	-5	-4	·
COc1cccc(NC(=O)c2ccccc2F)c1	·	6	0	·	·	-3	-91	-20
NC(=O)c1ccccc1OCCOCCOCCOc1ccccc1C(N)=O	-10	1	4	-7	i	-9	·	-6
CNc1nc(Cl)nc(Nc2ccccc2)n1	-1	-3	-3	1	i	-7	-86	·
CCOc1ccc(N(Cc2cc3cc(C)ccc3[nH]c2=O)S(=O)(=O)c2ccccc2)cc1	-1	-3	-5	5	i	-11	-3	-1
CCOC(=O)C1=C(CSc2nc(C)cc(C)c2C#N)OC(N)=C(C#N)C1c1cccs1 (centres undefined)	24	·	·	16	·	13	·	·
CCC(C)COC(=O)c1ccc(C(=O)O)cc1 (centres undefined)	4	-6	-2	-2	i	17	·	-15
N#CCN1C(=O)C(=O)N(Cc2cccc(C(F)(F)F)c2)C1=O	-9	-3	5	-9	i	-5	1	0
CCOC(=O)C1(CCOC)CCN(Cc2ccc(C(=O)OC)cc2)CC1	-2	-3	1	3	i	-7	13	5
COc1ccc(-n2c(SCC(=O)Nc3ccc(C(N)=O)cc3)nc3ccccc3c2=O)cc1OC	-11	3	6	11	i	-4	-90	-13

Fetched by compound from the entries so far:
SMILES	eIF4H inh	MT1-MMP act inh	MT1-MMP act inh RFP	PABP polyA inh	Rce1 inhib	CSC inhib	Env fusion inh	UUG fidelity	others
CCC(C)COC(=O)c1ccc(C(=O)O)cc1 (centres undefined)	4	-6	-2	-2	i	17	·	-15
N#CCN1C(=O)C(=O)N(Cc2cccc(C(F)(F)F)c2)C1=O	-9	-3	5	-9	i	-5	1	0
NC(=O)c1ccccc1OCCOCCOCCOc1ccccc1C(N)=O	-10	1	4	-7	i	-9	·	-6
N/C(Cc1ccc([N+](=O)[O-])cc1)=N\OC(=O)c1cccc(Br)c1	-9	3	0	6	i	-5	-4	·
CCOC(=O)C1(CCOC)CCN(Cc2ccc(C(=O)OC)cc2)CC1	-2	-3	1	3	i	-7	13	5

Going on with the list:
SMILES	eIF4H inh	MT1-MMP act inh	MT1-MMP act inh RFP	PABP polyA inh	Rce1 inhib	CSC inhib	Env fusion inh	UUG fidelity	others
O=C(c1cccc([N+](=O)[O-])c1)c1cc2ccccc2o1	-8	4	0	22	i	0	6	·
CCC(Nc1nc(-c2ccccc2)nc2ccccc12)C(=O)O (centres undefined)	-8	-1	-1	13	i	9	·	-16
CCc1ccc2nc(N)sc2c1	2	1	3	1	i	-4	-20	·
Cc1c(Cl)cccc1NC(=S)NC1CC1	4	3	3	-4	i	-10	-19	·
Cc1ccc(-c2ccnc3[nH]n(-c4ccccc4)c(=O)c23)cc1	-11	-2	-5	-14	i	-5	-4	5
CCOc1ccc(C2=NNC(c3cccs3)=Nc3ccc(OC)cc32)cc1OCC	-8	1	1	-12	i	-12	-19	-17
COc1ccc(CCNCC(=O)Nc2ccc(OC(F)(F)F)cc2)cc1OC	-7	-1	-1	0	i	6	12	-2
CCC(C)N(C(=O)CSc1nnc2ccccn12)C1CCS(=O)(=O)C1 (centres undefined)	·	-1	2	·	·	·	-19	-13
N#CCSc1nnc(-c2sc3ccccc3c2Cl)o1	1	3	-26	-11	i	-6	79*	·
Cc1cc(N2CCOCC2)n2nc(-c3cccc(F)c3)cc2n1	4	1	0	7	i	·	-35	-2
Cc1[nH]c(=O)[nH]c(=O)c1/C=N/NC(=O)[C@@H](NC(=O)OC(C)(C)C)C(C)C	4	·	·	6	i	4	·	3
Cc1ccccc1CN(C)CC(=O)Nc1ccccc1-c1ccccc1	2	-10	-12	7	i	60	19	-6

The last two entries of the section above open the next one.
SMILES	eIF4H inh	MT1-MMP act inh	MT1-MMP act inh RFP	PABP polyA inh	Rce1 inhib	CSC inhib	Env fusion inh	UUG fidelity	others
Cc1[nH]c(=O)[nH]c(=O)c1/C=N/NC(=O)[C@@H](NC(=O)OC(C)(C)C)C(C)C	4	·	·	6	i	4	·	3
Cc1ccccc1CN(C)CC(=O)Nc1ccccc1-c1ccccc1	2	-10	-12	7	i	60	19	-6
O=C(CCC1COc2ccccc2O1)Nc1ncccc1O (centres undefined)	-12	4	1	-10	i	6	·	-20
COC(=O)c1c(NC(=O)C(Cl)Cl)sc2c1C(C(=O)OC)CC2 (centres undefined)	2	-5	-5	0	i	·	-82	·
COc1ccc(CCC(C)N2CCc3ccccc3C2)cc1 (centres undefined)	-5	-3	-2	9	i	3	6	2
Nc1ncnc2c1ncn2[C@@H]1O[C@H](CNC(=O)[C@@H]2C[C@H](F)CN2)[C@@H](O)[C@H]1O	·	5	5	·	·	·	2	-3
COc1ccc(C2(CNC(C)=O)CCCC2)cc1OC	-13	-2	0	-2	i	-5	·	36
COc1ccc(-c2nnc(SCC(=O)c3cccs3)n2-c2ccc(Cl)cc2)cc1	2	-3	-4	2	i	-7	·	-24
CCc1nnc(NC(=O)c2ccc3nc(CC)c(CC)nc3c2)s1	-4	4	5	0	i	-3	-5	·
CCC1(CC)NC(=O)N(CC(=O)N2CCc3ccccc32)C1=O	·	·	·	·	·	-8	-12	5
O=C(COC(=O)/C=C/c1ccc(Cl)cc1Cl)NCC1CCCO1 (centres undefined)	·	0	2	·	·	21	·	-23
O=C(Cn1nc(Cc2cccnc2)c2ccccc2c1=O)NCc1ccc2c(c1)OCO2	4	-6	-1	12	i	-10	-12	-14
COC(=O)c1c(C)[nH]c(C(=O)/C=C/c2cccc(Cl)c2)c1C	-12	-1	0	-14	i	28	·	·
CC(C)C[C@H]1CN=C(Nc2ccccc2)N1CC1CCC1	-1	4	4	7	i	8	6	7
C/C(=N\NC(=S)NCc1ccccc1)c1ccc2c(c1)OCCO2	-6	3	-4	0	i	0	22	·
COc1ccc(/C=C/c2cc[n+](C(=O)Cc3ccccc3)cc2)cc1	-19	-38	-11	9	i	8	-4	0
CC1(C)CC(=O)C=C(Nc2ccc(Br)cn2)C1	-6	2	4	-1	i	-5	·	-15
Nc1ccc(S(=O)(=O)NC2=NCCCCC2)cc1N	-2	1	-4	12	i	-7	-2	-7
Cc1ccccc1N1CC(C(=O)Nc2ccc(S(=O)(=O)N3CCCCC3)cc2)CC1=O (centres undefined)	6	-3	-5	7	i	27	13	·
Cc1c(/C=N/N=C2\CCC3C4CCc5cc(O)ccc5C4CCC23C)cnn1C (centres undefined)	8	-2	0	-1	i	-4	·	-8
COc1ccc(O)c(C(=O)c2cc(C#N)c(=O)n(CCN3CCOCC3)c2)c1	3	0	3	-2	i	-6	·	-13
O=C(c1cc(-c2ccccc2)on1)N1CCN(Cc2ccc3c(c2)OCO3)CC1	-9	-5	1	-9	i	·	·	-16
CC(=O)c1ccc(NC(=O)CCCN2C(=O)C(c3ccccc3)Oc3cccnc32)cc1 (centres undefined)	-14	1	1	-4	i	-4	4	8
COc1ccc(C)cc1S(=O)(=O)NCC(c1cccnc1)N1CCc2ccccc2C1 (centres undefined)	-1	-6	1	-1	i	28	50	-11
CCn1c(SCC(=O)OC)nnc1C1CCCCC1	-7	2	1	-4	i	-12	3	-13
Nc1nc(CN2CCN(c3cccc(Cl)c3)CC2)nc(N2CCCc3ccccc32)n1	-12	-2	5	-3	i	-15	·	-14

A section taken from the entries so far, for reference:
SMILES	eIF4H inh	MT1-MMP act inh	MT1-MMP act inh RFP	PABP polyA inh	Rce1 inhib	CSC inhib	Env fusion inh	UUG fidelity	others
Nc1ccc(S(=O)(=O)NC2=NCCCCC2)cc1N	-2	1	-4	12	i	-7	-2	-7
Cc1ccccc1N1CC(C(=O)Nc2ccc(S(=O)(=O)N3CCCCC3)cc2)CC1=O (centres undefined)	6	-3	-5	7	i	27	13	·
Cc1c(/C=N/N=C2\CCC3C4CCc5cc(O)ccc5C4CCC23C)cnn1C (centres undefined)	8	-2	0	-1	i	-4	·	-8
COc1ccc(O)c(C(=O)c2cc(C#N)c(=O)n(CCN3CCOCC3)c2)c1	3	0	3	-2	i	-6	·	-13
O=C(c1cc(-c2ccccc2)on1)N1CCN(Cc2ccc3c(c2)OCO3)CC1	-9	-5	1	-9	i	·	·	-16

Next part
SMILES	eIF4H inh	MT1-MMP act inh	MT1-MMP act inh RFP	PABP polyA inh	Rce1 inhib	CSC inhib	Env fusion inh	UUG fidelity	others
CC(C)CC1C(=O)N(Cc2cn(CCC3OCCCO3)nn2)CCS(=O)(=O)N1Cc1ccc(-c2cccc(N(C)C)c2)cc1 (centres undefined)	·	5	4	·	·	·	-8	5
N#Cc1cc(-c2ccccc2)nc(NN)n1	-4	7	3	0	i	-8	-1	·
COC(=O)/C=C1\N/C(=N\c2nc(C)cc(C)n2)N(c2ccccc2)C1=O	1	-1	-3	-9	i	-8	12	-24
FC(F)(F)c1ccccc1NC(=S)Nc1ccccc1	5	-3	5	5	i	0	18	-23
Cn1cc(SCC(=O)NCCc2ccccc2)c2ccccc21	2	2	-1	14	i	2	9	·
CCOc1ccc(-n2nc3c(Cl)nnc(C)c3c2C)cc1	0	0	1	-10	i	-17	·	6
O=C(CCCOc1ccc(Br)cc1)Nc1nnc(C2CC2)s1	·	2	0	·	·	-11	·	12
